From PubChem
Rango-impB inh = qHTS Assay for Inhibitors of Rango (Ran-regulated importin-beta cargo) - Importin beta complex formation | Rango CFP/YFP FRET sensor + importin beta, 45 min | Importin subunit beta-1 (Homo sapiens), Q14974 | hit rate 0.031% among 340,000 | Potency, µM (titrated, usually from 92.2 µM), without a hit: top-dose inhibition of complex formation; active = rising FRET ratio curve, often small or poorly fitted; inconclusive = mostly compound fluorescence or quenching in the first reads; inactive = flat curves in all reads;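 also: potency is read from the fitted curve at half-maximal effect; 0% = DMSO wells and 100% = buffer wells lacking importin beta; nearly all actives have a fitted effect of over 15% in size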
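FRET biosensor (snurportin 1 IBB flanked by EYFP and cerulean), 50 nM, with compound 5 min, then 0.125 microM importin beta in PBS, 1 mM DTT, 0.02% Tween-20, 0.1% BSA. CFP/YFP ratio read after 45 min at room temperature; pre-read flags interference.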
Rango dissoc inh = qHTS Assay for Inhibitors of RanGTP induced Rango (Ran-regulated importin-beta cargo) - Importin beta complex dissociation; Potency, µM (titrated, usually from 46.1 µM), for the others: at the top dose activity change, negative = inhibition; AID 540253, 2011; hit rate 0.071% among 340,000; Biochemical FRET Rango-importin beta, RanGTP-induced dissociation; active means falling FRET ratio curve, often poorly fitted, with flat reads before Ran was added; inconclusive means other falling curves, or compound fluorescence or quenching; inactive means flat or rising ratio curve;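 also: potency is read from the fitted curve at half-maximal effect; % of control where 0% means no effect; nearly all actives have a fitted effect of over 45% in size; -100% = wells without RanGTP and RCC1; the record marks most hits as doubtful in a second field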
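Compounds sat 5 min at room temperature with 0.1 uM Rango biosensor plus 0.25 uM importin beta, then FRET pre-read. RanGTP-RCC1 (0.6 uM Ran, 2mM GTP, 0.2 uM RCC1) added for 45 min, and the CFP/YFP post-read measured blocked complex dissociation.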
GLA inh pH 4.5 = qHTS Assay for Inhibitors of Human alpha-Galactosidase at pH 4.5. purified enzyme, 4-MU-alpha-Gal fluorescence, pH 4.5. activity change, negative = inhibition, % at 105 µM. 230,000 tested, under 10 active. AID 1467, 2008; inconclusive = small, poorly fitted or top-dose-only inhibition, or a rising curve; inactive = flat fitted curve, though single readings scatter; no compound was filed as active;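 also: 0% = full activity with enzyme and -100% = basal without enzyme; dose as in the result columns while the protocol names 77 µM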
Target sequence (P06280 whole entry, looked up): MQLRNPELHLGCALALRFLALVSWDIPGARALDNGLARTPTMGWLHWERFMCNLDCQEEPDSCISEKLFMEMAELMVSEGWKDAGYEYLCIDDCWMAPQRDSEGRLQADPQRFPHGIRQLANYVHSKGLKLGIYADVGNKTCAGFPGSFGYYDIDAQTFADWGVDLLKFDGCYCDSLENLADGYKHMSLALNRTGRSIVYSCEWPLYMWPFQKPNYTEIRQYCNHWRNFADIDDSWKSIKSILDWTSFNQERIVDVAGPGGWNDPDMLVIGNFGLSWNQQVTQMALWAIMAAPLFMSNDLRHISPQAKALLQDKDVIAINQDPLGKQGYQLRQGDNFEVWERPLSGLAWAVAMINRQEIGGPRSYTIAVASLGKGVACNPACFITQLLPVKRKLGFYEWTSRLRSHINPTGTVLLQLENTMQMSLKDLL
miR-21 FLuc = qHTS Assay for Modulators of miRNAs and/orActivators of miR-21; 340,000 tested, under 10 active; Potency, µM (titrated, usually from 38.3 µM), for the others: at the highest dose reporter change, positive = more light; HeLa miR-21 FLuc reporter, luciferase, 48 h; active = well fitted rising curve with a large enough effect; inconclusive = small, poorly fitted or top-dose-only effect; inactive = no such curve, though single readings can be large or run the other way;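 also: % of control where 0% means no effect; miR-21 action dims this reporter so a rising signal means less miR-21 action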
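HeLa cells endogenously expressing miR-21, stably carrying CMV-driven firefly luciferase with a downstream miR-21 binding site, 2000 cells/well. Titrations up to approximately 40 uM, 48 hours; luciferase luminescence read.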
* = called active by the depositor. An excerpt; count on the stated rates, not on these rows.

How did CCOCCCNCC(=O)Nc1ccc(OC(F)(F)F)cc1 do in these assays?
Rango-impB inh: -0.8%; Rango dissoc inh: 8%; GLA inh pH 4.5: -5; miR-21 FLuc: -4%

Results for COc1ccc(CNC(=O)c2c(N)n(CCCN3CCOCC3)c3nc4ccccc4nc23)cc1 ?
Rango-impB inh: inconclusive; Rango dissoc inh: inconclusive; GLA inh pH 4.5: 1; miR-21 FLuc: inconclusive

Results for O=C(COc1ccc2c(c1)CCC2)NCc1cccc(Cl)c1 ?
Rango-impB inh: 3.6%; Rango dissoc inh: -7%; GLA inh pH 4.5: -5; miR-21 FLuc: -1%

What do the screens show for `COC(=O)CCS(=O)(=O)c1cc(Cl)ccc1Cl`?
Rango-impB inh: -0.5%; Rango dissoc inh: -12%; GLA inh pH 4.5: 8; miR-21 FLuc: -3%

Results for CCCCn1c(N)c(N(CC(C)C)C(=O)c2cc(-c3ccc(F)cc3)nc3ccccc23)c(=O)[nH]c1=O ?
Rango-impB inh: -3.2%; Rango dissoc inh: -8%

What do the screens show for `O=C(Nc1ccc(S(=O)(=O)N2CCCC2)cc1)c1ccc(Br)o1`?
Rango-impB inh: -3.5%; Rango dissoc inh: 0%; miR-21 FLuc: -4%

How did OCC1(Cc2ccc(F)cc2)CCCN(CCCC(F)(F)F)C1 (stereo unspecified) do in these assays?
Rango-impB inh: 3.1%; Rango dissoc inh: -1%; miR-21 FLuc: 5%

Results for O=C1CC(C(=O)N2CCc3ccccc32)CN1c1ccccc1 (stereo unspecified) ?
Rango-impB inh: -0.1%; Rango dissoc inh: -1%; miR-21 FLuc: 0%

What do the screens show for `O=C(NC1CCN(Cc2ccccc2)CC1)c1cn(-c2ccccc2)nc1-c1cccnc1`?
Rango-impB inh: -1.4%; Rango dissoc inh: -13%

How did Cc1oc(-c2ccc(Cl)cc2)nc1CN1CCC(C(=O)NCC2CCCO2)CC1 (stereo unspecified) do in these assays?
Rango-impB inh: 1.1%; Rango dissoc inh: -8%; miR-21 FLuc: -1%

How did COc1cc2[nH]c3c(N4CCN(c5ccc(Cl)cc5)CC4)ncnc3c2cc1OC do in these assays?
Rango-impB inh: -0.1%; Rango dissoc inh: -2%; GLA inh pH 4.5: -3; miR-21 FLuc: -5%

What do the screens show for `Cc1cc(NC(=O)COc2ccc3ccccc3c2)no1`?
Rango-impB inh: 5.1%; Rango dissoc inh: -6%; miR-21 FLuc: -21%

What do the screens show for `CC(=O)c1ccc(S(=O)(=O)Nc2ccc(C(=O)N3CCC3)cc2)cc1`?
Rango-impB inh: 1.8%; Rango dissoc inh: 4%

Results for Cc1cc(C)c2oc(=O)cc(CN3CCOCC3)c2c1 ?
Rango-impB inh: -3.1%; Rango dissoc inh: 8%; GLA inh pH 4.5: -4; miR-21 FLuc: -11%

How did O=C(Cc1n[nH]c(=O)c2ccccc12)NC(c1ccccc1)c1ccccc1 do in these assays?
Rango-impB inh: 1.5%; Rango dissoc inh: -1%; GLA inh pH 4.5: 9; miR-21 FLuc: -15%

What do the screens show for `CN1C(=O)CCC(CCC(=O)O)(c2ccccc2O)C1=O` (stereo unspecified)?
Rango-impB inh: -4.5%; Rango dissoc inh: -2%; miR-21 FLuc: -3%

What do the screens show for `COc1ccc(NC(=O)CS(=O)(=O)c2cccc(Cl)c2)cc1`?
Rango-impB inh: -3.2%; Rango dissoc inh: -7%; miR-21 FLuc: -5%

Results for Cc1cccc(C)c1NC(=O)COC(=O)c1nonc1N ?
Rango-impB inh: 1.7%; Rango dissoc inh: 1%; GLA inh pH 4.5: -6; miR-21 FLuc: -1%

What do the screens show for `COC(=O)Cc1c(C)c2ccc(O)c(CN3CCCC(C)C3)c2oc1=O` (stereo unspecified)?
Rango-impB inh: inconclusive; Rango dissoc inh: inconclusive; GLA inh pH 4.5: inconclusive; miR-21 FLuc: -8%

What do the screens show for `Cc1csc(NC(=O)CSc2nc(C(C)C)nc3ccccc23)n1`?
Rango-impB inh: -1.0%; Rango dissoc inh: 21%; miR-21 FLuc: 12%

How did COC(=O)c1ccc(C)c(NC(=O)COC(=O)C2CC3CCCC(C2)C3=O)c1 (stereo unspecified) do in these assays?
Rango-impB inh: 2.0%; Rango dissoc inh: 21%

How did O=C(Nc1scc(-c2ccccc2)c1C(=O)O)c1ccc(F)cc1 do in these assays?
Rango-impB inh: -1.8%; Rango dissoc inh: -7%; miR-21 FLuc: 2%

What do the screens show for `O=C(Cn1cc([N+](=O)[O-])cn1)NCc1ccccc1Cl`?
Rango-impB inh: 0.2%; Rango dissoc inh: -11%

How did Cn1c(NC(=O)/C=C/c2c(F)cccc2Cl)cc(=O)n(C)c1=O do in these assays?
Rango-impB inh: -3.7%; Rango dissoc inh: -3%; GLA inh pH 4.5: -5; miR-21 FLuc: -2%

Results for O=C(Nc1ccn(Cc2c(F)c(F)cc(F)c2F)n1)c1ccc(COc2cc(Cl)ccc2Cl)o1 ?
Rango-impB inh: -0.8%; Rango dissoc inh: 2%; GLA inh pH 4.5: -6; miR-21 FLuc: 0%

How did CC(=O)Nc1ccc(OC/C=C(\C)Cl)cc1 do in these assays?
Rango-impB inh: -1.3%; Rango dissoc inh: -12%; GLA inh pH 4.5: 0; miR-21 FLuc: -31%

What do the screens show for `Cn1cnnc1SCC(=O)Nc1c(F)cc(F)cc1Br`?
Rango-impB inh: -0.8%; Rango dissoc inh: 2%; GLA inh pH 4.5: 4; miR-21 FLuc: -1%

Results for S=c1nc[nH]c2c1[nH]c1ccccc12 ?
Rango-impB inh: -1.2%; Rango dissoc inh: -11%; GLA inh pH 4.5: 5; miR-21 FLuc: -15%

What do the screens show for `COc1ccc(CCN(C(=O)C(F)(F)F)C(C(=O)NC2CCCCC2)c2ccc(C)s2)cc1` (stereo unspecified)?
Rango-impB inh: 0.6%; Rango dissoc inh: -10%; GLA inh pH 4.5: 4; miR-21 FLuc: -4%

What do the screens show for `CNC(=O)CNC(=O)Nc1ccc(Cl)c(Cl)c1`?
Rango-impB inh: -3.0%; Rango dissoc inh: 0%; GLA inh pH 4.5: -2; miR-21 FLuc: 0%

How did Cc1nn(-c2ccccc2)nc1C(=O)OCC(=O)N1CCC(C)CC1 do in these assays?
Rango-impB inh: -2.0%; Rango dissoc inh: -5%

How did COc1ccc(C(=O)OC2CCCCC2CN(C)C)cc1 (stereo unspecified) do in these assays?
Rango-impB inh: -0.4%; Rango dissoc inh: 15%; miR-21 FLuc: -5%

Results for O=C(NC(=O)N1CCCCCC1)c1ccc(Cl)cc1 ?
Rango-impB inh: -4.7%; Rango dissoc inh: -1%; miR-21 FLuc: -7%

What do the screens show for `COc1ccc(NC2CCCN(C(=O)c3ccc4[nH]c(C)c(C)c4c3)C2)cc1` (stereo unspecified)?
Rango-impB inh: 0.4%; Rango dissoc inh: -1%; miR-21 FLuc: -5%

How did Cc1ccc(OCCOC(=O)c2c(-c3ccccc3)noc2C)cc1 do in these assays?
Rango-impB inh: -1.1%; Rango dissoc inh: 1%; miR-21 FLuc: 18%

How did CCCS(=O)(=O)N1CCCC(C(=O)NCCN(Cc2ccccc2)C(C)C)C1 (stereo unspecified) do in these assays?
Rango-impB inh: -1.6%; Rango dissoc inh: 6%; GLA inh pH 4.5: -8; miR-21 FLuc: -10%

How did CCC(Sc1nc(N)cc(N)n1)C(=O)O (stereo unspecified) do in these assays?
Rango-impB inh: -0.1%; Rango dissoc inh: 2%; GLA inh pH 4.5: 6; miR-21 FLuc: -1%

What do the screens show for `O=C(Cn1nc(-c2ccccc2)ccc1=O)Nc1cccc(NC(=O)c2ccccn2)c1`?
GLA inh pH 4.5: 7; miR-21 FLuc: -1%

How did Cc1cc(C)c(S(=O)(=O)N2CCN(C(=O)CCOc3ccccc3C)CC2)c(C)c1 do in these assays?
Rango-impB inh: 1.1%; Rango dissoc inh: 3%

What do the screens show for `Cc1cccc(C2=NN(c3ccc(Br)cc3)[C@@H](C(=O)N3CCOC3=O)[C@@H]2c2ccc(F)cc2)c1`?
Rango-impB inh: inconclusive; Rango dissoc inh: inconclusive; GLA inh pH 4.5: inconclusive; miR-21 FLuc: 0%

Retrieved by compound from the list above:
What do the screens show for `O=C(Cn1nc(-c2ccccc2)ccc1=O)Nc1cccc(NC(=O)c2ccccn2)c1`?
GLA inh pH 4.5: 7; miR-21 FLuc: -1%

What do the screens show for `O=C(Cn1cc([N+](=O)[O-])cn1)NCc1ccccc1Cl`?
Rango-impB inh: 0.2%; Rango dissoc inh: -11%

What do the screens show for `CNC(=O)CNC(=O)Nc1ccc(Cl)c(Cl)c1`?
Rango-impB inh: -3.0%; Rango dissoc inh: 0%; GLA inh pH 4.5: -2; miR-21 FLuc: 0%

In the list so far, these contain a CF3 group:
How did CCOCCCNCC(=O)Nc1ccc(OC(F)(F)F)cc1 do in these assays?
Rango-impB inh: -0.8%; Rango dissoc inh: 8%; GLA inh pH 4.5: -5; miR-21 FLuc: -4%

How did OCC1(Cc2ccc(F)cc2)CCCN(CCCC(F)(F)F)C1 (stereo unspecified) do in these assays?
Rango-impB inh: 3.1%; Rango dissoc inh: -1%; miR-21 FLuc: 5%

What do the screens show for `COc1ccc(CCN(C(=O)C(F)(F)F)C(C(=O)NC2CCCCC2)c2ccc(C)s2)cc1` (stereo unspecified)?
Rango-impB inh: 0.6%; Rango dissoc inh: -10%; GLA inh pH 4.5: 4; miR-21 FLuc: -4%

More structures.
What do the screens show for `Cc1ccc(NC(=O)CS(=O)CC(=O)N(CC(=O)NC2CCCC2)c2ccc3c(c2)OCCO3)cc1` (stereo unspecified)?
Rango-impB inh: 4.4%; Rango dissoc inh: -6%; GLA inh pH 4.5: 2; miR-21 FLuc: -3%

How did CCN(CC)CCc1c(C)[nH]c(C(=O)OCc2ccccc2)c1C do in these assays?
Rango-impB inh: -3.4%; Rango dissoc inh: -7%; GLA inh pH 4.5: -12; miR-21 FLuc: -12%

Results for CCOc1ccc(C(=O)NCC(=O)OCC(=O)NC2CCCC2)cc1 ?
Rango-impB inh: -0.3%; Rango dissoc inh: 0%; GLA inh pH 4.5: -2; miR-21 FLuc: 5%

What do the screens show for `CC(=O)c1ccc(NC(=O)CN2CCC(NC(=O)C3CCCCC3)CC2)cc1`?
Rango-impB inh: 0.3%; Rango dissoc inh: 15%; GLA inh pH 4.5: 4; miR-21 FLuc: -10%

What do the screens show for `Fc1cccc(NC(=S)NNc2ccccc2)c1`?
Rango-impB inh: 0.1%; Rango dissoc inh: -7%; miR-21 FLuc: 3%

What do the screens show for `O=c1[nH]c2c(c(=O)n1Cc1ccccc1)CCC2`?
Rango-impB inh: 6.3%; Rango dissoc inh: -7%; GLA inh pH 4.5: 1; miR-21 FLuc: 2%

How did Cn1c(CCN2CCCCC2)nc2cc(NC(=O)C3CCCCC3)ccc21 do in these assays?
Rango-impB inh: -3.0%; Rango dissoc inh: -13%; GLA inh pH 4.5: -2; miR-21 FLuc: -14%

Results for CN(C)c1ccc([N+](=O)[O-])cc1C(=O)NCC(c1ccco1)N(C)C (stereo unspecified) ?
Rango-impB inh: 1.3%; Rango dissoc inh: 2%; miR-21 FLuc: 0%

What do the screens show for `CCOc1ccccc1NC(=O)NNS(=O)(=O)c1ccc([N+](=O)[O-])cc1`?
Rango-impB inh: 3.1%; Rango dissoc inh: 15%; miR-21 FLuc: 2%

What do the screens show for `CCCc1nn(C)c2c(=O)[nH]c(-c3cc(S(=O)(=O)N(CCO)CCO)ccc3OCC)nc12`?
Rango-impB inh: -0.1%; Rango dissoc inh: -19%; GLA inh pH 4.5: -5; miR-21 FLuc: -7%

Results for O=C(Nc1ccccc1)C1=C[C@H](c2coc3ccccc3c2=O)C[C@H](OCc2ccc(CO)cc2)O1 ?
Rango-impB inh: 0.8%; Rango dissoc inh: -8%; GLA inh pH 4.5: -5; miR-21 FLuc: 18%

How did CC(NC(=O)Nc1cccnc1)(C(F)(F)F)C(F)(F)F do in these assays?
Rango-impB inh: 1.4%; Rango dissoc inh: 34%; GLA inh pH 4.5: 1; miR-21 FLuc: 2%
